# Source: PubChem
# D2 PAM – human D2 receptor positive allosteric modulation; DiscoveRx D2 beta-arrestin cells, luminescence, 90 min; 100% = 57 uM dopamine signal; potentiation, % (concentration not given with the values); 360,000 tested, 0.23% active; active = potentiation of 50% or more; inconclusive = 30% to 50%; inactive = 30% or less;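 further: compound concentration not given in the record; tested on top of an EC20 dose of dopamine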
# Target sequence (P14416 whole entry, looked up): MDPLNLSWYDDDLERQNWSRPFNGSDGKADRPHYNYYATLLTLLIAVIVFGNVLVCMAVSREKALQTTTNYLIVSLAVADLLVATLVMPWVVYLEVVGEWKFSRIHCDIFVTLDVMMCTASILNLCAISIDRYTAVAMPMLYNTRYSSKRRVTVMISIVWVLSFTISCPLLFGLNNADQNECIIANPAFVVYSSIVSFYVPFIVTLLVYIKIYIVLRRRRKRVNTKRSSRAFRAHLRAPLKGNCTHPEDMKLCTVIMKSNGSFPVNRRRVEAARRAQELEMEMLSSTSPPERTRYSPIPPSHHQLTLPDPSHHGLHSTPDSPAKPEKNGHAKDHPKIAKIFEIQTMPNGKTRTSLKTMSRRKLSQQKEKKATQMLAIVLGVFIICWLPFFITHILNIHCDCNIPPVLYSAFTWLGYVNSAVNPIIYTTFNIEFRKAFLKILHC
#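 D2 cells co-treated with compound plus 50 nM dopamine (EC20) for 90 min at 37 deg C to detect potentiation. Beta-arrestin recruitment was read as enzyme-fragment luminescence after 1 h at ambient temperature. Full response was set by 57 uM dopamine.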
# CtBP-E1A inh – CtBP/E1A binding inhibition. AlphaScreen GST-E1A/His-CtBP binding, 1536-well; active compounds read low; control for the full effect not named in the record. activity change, % (test concentration not listed). 340,000 tested, 0.49% active. AID 651724; in the data active means activity change below about -65%; inconclusive means about -30% to -65%; inactive means above about -30%; further: on the % scale 0 is the no-effect control and ±100 the full control effect
#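 Steps: dispense buffer (Tris pH 8.0, NaCl 300 mM, TCEP 1 mM, BSA, Tween 20); add 5X protein mix (GST-E1A, His-CtBP, 125 nM each); pin 23 nL compound; 2 h at 37 °C, dark; add 5X beads (50 ug/mL); 1 h; read.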
# TRPML1 inh – human mucolipin-1 channel inhibition. TRPML1-inducible cells, Ca2+ dye fluorescence, FDSS; active compounds read low; inhibition of EC80 agonist-evoked calcium signal. activity change, negative = inhibition, % (test concentration not listed). 390,000 tested, 0.02% active. AID 624415; in the data active means activity change below about -50%; inconclusive means about -30% to -50%; inactive means above about -30%;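 further: stimulus is agonist 54-4 at its EC80 concentration; on the % scale 0 is the no-effect control and ±100 the full control effect; compound concentration not given in the record; the text of the record puts the active cut at -80%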
# Target sequence (Q9GZU1 whole entry, looked up): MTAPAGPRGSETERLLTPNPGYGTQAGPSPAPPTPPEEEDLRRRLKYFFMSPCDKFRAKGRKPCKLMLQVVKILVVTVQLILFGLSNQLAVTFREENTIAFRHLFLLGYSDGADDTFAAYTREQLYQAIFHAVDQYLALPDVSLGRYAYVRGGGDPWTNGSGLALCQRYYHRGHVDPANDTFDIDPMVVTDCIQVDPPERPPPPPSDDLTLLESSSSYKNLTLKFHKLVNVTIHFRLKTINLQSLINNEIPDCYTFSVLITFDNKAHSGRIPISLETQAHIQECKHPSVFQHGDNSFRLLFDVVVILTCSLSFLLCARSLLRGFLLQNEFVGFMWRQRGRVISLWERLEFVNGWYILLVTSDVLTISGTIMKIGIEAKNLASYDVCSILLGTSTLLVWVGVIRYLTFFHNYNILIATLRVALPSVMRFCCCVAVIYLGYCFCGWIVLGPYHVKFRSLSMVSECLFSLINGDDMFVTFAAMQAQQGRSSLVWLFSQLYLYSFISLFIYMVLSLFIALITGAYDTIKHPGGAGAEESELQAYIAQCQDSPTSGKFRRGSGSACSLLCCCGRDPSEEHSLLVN
#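 Tet-induced TRPML1-DL cells loaded with Ca8 no-wash calcium dye were read kinetically on FDSS. Compound addition was followed by EC80 agonist 54-4 (4 uM final); inhibition was read over 110 s.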
# TRPV1 PAM – potentiators of human vanilloid receptor 1 (TRPV1); TRPV1-expressing cells, Fluo-8 calcium influx, capsaicin EC20 potentiation; host cell line not named in the record; control for the full effect not named in the record; Q8NER1; 320,000 tested, 0.02% active; AID 540277; potentiation, % at 8.33 µM; active means potentiation above 80%; inconclusive means 30% to 80%; inactive means below 30%; further: 0% is about no effect
#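 TRPV1-expressing cells were cultured overnight at 35.5C and loaded with Fluo-8 calcium dye for 40 to 90 min at room temperature. After a 10 s baseline, compound was added and calcium influx was read kinetically for 3 min (ex 480/em 520 nm).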
# TRPML1 agonist – activates the human TRPML1 channel. Q9GZU1. TRPML1-expressing cells, Ca2+ dye fluorescence, FDSS; host cell line not named in the record; reference of the full effect not given here. activation, % (no concentration beside the values). 410,000 tested, 0.12% active. AID 624414; in the data active = activation above about 50%; inconclusive = about 30% to 50%; inactive = below about 30%; further: 0% is about no effect; the text of the record puts the active cut at 80%
#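 Calcium fluorescence on an FDSS kinetic reader gave the read-out. Tet-induced TRPML1-DL cells were plated overnight, dye-loaded (Ca8 with quencher, 45-90 min, room temperature, dark), then read 110 s after compound addition, and again 110 s after 4uM final 54-4 (EC80).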
# Six1-Eya2 inh – blocks human Six1 binding to Eya2; Q15475+O00167; AlphaScreen GST-Six1/His-Eya2 binding, biochemical; active compounds read low; control for the full effect not named in the record; activity change, % (concentration not given with the values); 360,000 tested, 0.56% active; in the data active = activity change below about -65%; inconclusive = about -30% to -65%; inactive = above about -30%; further: on the % scale 0 is the no-effect control and ±100 the full control effect
#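 Compounds are tested against tagged Six1 and Eya2 proteins bridged by glutathione donor and nickel acceptor beads; after a one-hour incubation at 37 °C without light, AlphaScreen emission is recorded.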
# Active calls of the source: *; ? = inconclusive; / = no result given; & = joins results of further samples.
structure	D2 PAM	CtBP-E1A inh	TRPML1 inh	TRPV1 PAM	TRPML1 agonist	Six1-Eya2 inh
C=CCn1c(SCc2cccc(C#N)c2)nnc1-c1ccccc1O	-3	-4	21	22	0.9	6
Cc1ccc2c(c1)N(CCC(=O)NC1CCCCC1C)C(=O)CO2 (configuration not stated)	-7	-8	-8	-1	-0.4	4
CC(C)OC(=O)N(C)C[C@H]1OCc2cnnn2CCCC(=O)N([C@H](C)CO)C[C@@H]1C	6	7	-7	/	0.2	5
CC(C)(C)CC(C)(C)NC(=S)Nc1ccc(S(=O)(=O)N2CCOCC2)cc1	2	2	5	-3	-0.5	2
CC(=O)Nc1ccc(N2C(=O)CC(Sc3nc4ccccc4s3)C2=O)cc1 (configuration not stated)	-6	/	-6	6	0.4	-2
CC(C)C[C@H](NC(=O)c1nc[nH]c1C(=O)NCC(=O)OC(C)(C)C)C(=O)OCc1ccccc1	5	0	-2	?	2.7	-2
CCOC(=O)CCCCC(=O)c1[nH]c(=O)[nH]c1CSc1nc2ccccc2[nH]1	10	0	-6	20	0.5	0
O=c1c2cc(NC(=S)NCCCN3CCC(Cc4ccccc4)CC3)ccc2nc2n1CCCCC2	-31	-17	-2	-3	3.1	-15
O=C(Nc1ccc(O)c(-c2nc3ccccc3o2)c1)C1(c2ccc([N+](=O)[O-])cc2)CCCC1	18	-2	-20	-5	0.4	-10
Cc1ccnc(NS(=O)(=O)c2ccc(CC(C)C)cc2)c1	-18	-10	11	-1	0.1	4
COc1ccccc1NC(=O)CCc1nc(-c2ccccc2F)no1	-11	5	12	?	-1.3	0
O=S(=O)(c1cccc(Br)c1)N1CCN(C(=S)NCC2CCCO2)CC1 (configuration not stated)	3	-12	3	-8	0.0	1
COC(=O)c1ccc(Cn2nnc3ccccc3c2=O)o1	1	9	-6	3	0.4	1
COC(=O)C1=C(C)NC(=O)NC1c1ccc(-c2ccc(F)cc2)o1 (configuration not stated)	3	-7	3	-2	-0.7	-3
Cc1cccc(C(=O)N[C@H](C(=O)Nc2ccc3c(c2)OCO3)C(C)C)c1	-3	-5	1	/	1.2	-4
CCN(CC)S(=O)(=O)c1cccc(NC(=O)CN2C(=O)NC3(CCC(C)CC3)C2=O)c1 (configuration not stated)	1	-1	3	13	0.3	4
CC(C)OCCCNS(=O)(=O)c1ccc2c(c1)OCCO2	-12	2	6	-4	-0.8	1
O=c1c2ccccc2cnn1CCOc1ccccc1	-12	0	-3	-12	-1.4	27
COc1cc(NS(=O)(=O)c2ccc(NC(=S)NC(=O)c3sc4cc(F)ccc4c3Cl)cc2)nc(OC)n1	2	4	-6	21	-0.3	0
CC(C)CCNC(=O)c1onc(CSc2nc3ccccc3[nH]2)c1C(=O)NCCC(C)C	-5	2	6	11	-0.6	2
O=C(NNC(=O)c1cnccc1C(F)(F)F)c1ccc(Cl)cc1	-2	2	-2	-2	-0.3	0
COc1c(Cl)cc(Cl)cc1C(=O)Nc1ccc(NC(C)=O)cc1	-5	1	42	-15	0.7	-11
CS(=O)(=O)N1CCN(c2nc(-c3ccc(F)cc3)cs2)CC1	7	-4	3	-10	-0.1	-1
COc1ccccc1C(=O)N1CCN(C(=O)c2oc3ccc(C)cc3c2C)CC1	-4	-4	6	-7	0.9	-1
CCN(CC)C(=O)c1c(C)[nH]c(=S)c(C#N)c1-c1ccco1	-9	4	-22	14	0.3	6

# Some of the entries above, reformatted.
> O=c1c2cc(NC(=S)NCCCN3CCC(Cc4ccccc4)CC3)ccc2nc2n1CCCCC2
  D2 PAM: -31
  CtBP-E1A inh: -17
  TRPML1 inh: -2
  TRPV1 PAM: -3
  TRPML1 agonist: 3.1
  Six1-Eya2 inh: -15
> O=C(Nc1ccc(O)c(-c2nc3ccccc3o2)c1)C1(c2ccc([N+](=O)[O-])cc2)CCCC1
  D2 PAM: 18
  CtBP-E1A inh: -2
  TRPML1 inh: -20
  TRPV1 PAM: -5
  TRPML1 agonist: 0.4
  Six1-Eya2 inh: -10

# Later entries.
structure	D2 PAM	CtBP-E1A inh	TRPML1 inh	TRPV1 PAM	TRPML1 agonist	Six1-Eya2 inh
CC1CCCC(NC(=O)CN2CCN(S(=O)(=O)c3ccc(Br)s3)CC2)C1C (configuration not stated)	-7	-1	5	4	0.0	-1
CCOc1ccccc1C(=O)N(C)Cc1cc2cc(OC)ccc2[nH]c1=O	-3	-1	3	13	4.9	-2
Cc1ccc(CSCC(=O)NCc2cccs2)cc1	-14	-2	-2	-7	0.1	7
O=C(CSc1ncc(-c2ccccc2)[nH]1)Nc1ccccc1F	-1	-9	4	-23	1.2	-17
CCOC(=O)N1CCN(S(=O)(=O)N2CCCC(C(=O)NCc3cc(Br)ccc3OC)C2)CC1 (configuration not stated)	-3	7	-9&-7	/	0.5&0.9	3
CCN(C(=O)CSc1nc2ccc(OC)cc2[nH]1)c1c(N)n(Cc2ccccc2)c(=O)[nH]c1=O	-9	1	17	7	0.1	7
Cc1c(C(=O)Nc2ccc(F)cc2)oc2ccc(S(=O)(=O)N3CCC4(CC3)OCCO4)cc12	6	16	-3	-4	0.2	10
COc1ccc(NC(=O)CC2C(=O)N(CCc3ccccc3)C(=S)N2Cc2cccnc2)cc1 (configuration not stated)	16	-8	21	-1	0.4	-7
CC(=O)C1=C(C)NC(SCc2cccc([N+](=O)[O-])c2)=C(C#N)C1c1ccco1 (configuration not stated)	-10	-26	23	11	-0.4	-15
Cc1ccc(C(=O)NNC2=Nc3cccc4cccc2c34)cc1	-25	3	9	-6	4.6	-1
Cc1nnc(SCC(=O)Nc2cc(S(=O)(=O)N3CCOCC3)ccc2N2CCCC2)s1	-2	3	-11	/	1.8	1
CCC(CC)c1nnc(NC(=O)c2ccc(N3CCCCC3)c([N+](=O)[O-])c2)s1	-3	-23	-2	-4	-0.2	-24
CS(=O)(=O)N1CCN(C(=O)Cc2ccccc2)CC1	8	0	9	11	0.5	1
Cc1ccc(Cl)cc1N1CCN(S(=O)(=O)c2c(C)nc3scc(C)n3c2=O)CC1	0	-1	9	-8	1.3	5
CCCC(=O)OCCNc1cc(SCCC(=O)OC)c2nonc2c1[N+](=O)[O-]	-31	-3	0	1	0.1	-13
Cc1occc1C(=O)N1CCN(S(=O)(=O)c2ccc(F)cc2)CC1	1	6	-3	6	-0.5	3
Cc1cc(=O)oc2cc(OCC(=O)Nc3ccccc3C(N)=O)c(Cl)cc12	4	1	4	?	-0.6	4
COc1ccc(/C=C/C(=O)OCC(=O)NC2CCCC2)c(OC)c1	-4	/	6	-2	-0.1	-1
N#Cc1c(SCC(=O)Nc2ccc(C(F)(F)F)cc2)sc2c(O)cc(=O)[nH]c12	3	-5	9	4	-0.6	-2
CCOc1cc(N2CCOCC2)c(OCC)cc1NC(=O)COc1cccc2cccnc12	5	?	1	14	1.3	-67*
COc1ccccc1NC(=O)C(C)OC(=O)CCCc1c[nH]c2ccccc12 (configuration not stated)	-13	-4	1	16	1.0	-9
C=C(C)CC1(NC(C)c2ccccc2)CCCCC1 (configuration not stated)	-2	4	44	2	-0.6	21
O=C(/C=C/c1ccco1)NC(=S)N1CCCCC1	-3	8	12	-2	-0.8	-5
CN(Cc1cn(C)nc1-c1cccc(Cl)c1)Cc1nccn1C	-10	/	3	-4	-0.8	-5
CCOC(=O)c1sc(NC(=O)c2ccncc2)c(C#N)c1C	?	-4	43	6	-0.1	-1

# Reprinted from the entries so far (three entries):
structure	D2 PAM	CtBP-E1A inh	TRPML1 inh	TRPV1 PAM	TRPML1 agonist	Six1-Eya2 inh
Cc1cc(=O)oc2cc(OCC(=O)Nc3ccccc3C(N)=O)c(Cl)cc12	4	1	4	?	-0.6	4
COc1ccc(/C=C/C(=O)OCC(=O)NC2CCCC2)c(OC)c1	-4	/	6	-2	-0.1	-1
N#Cc1c(SCC(=O)Nc2ccc(C(F)(F)F)cc2)sc2c(O)cc(=O)[nH]c12	3	-5	9	4	-0.6	-2

# Next section.
structure	D2 PAM	CtBP-E1A inh	TRPML1 inh	TRPV1 PAM	TRPML1 agonist	Six1-Eya2 inh
Cc1ccc(C)c(NC(=O)CS(=O)(=O)c2c[nH]c3ccccc23)c1	-12	-3	2	-25	1.0	7
COCCNC(=O)c1csc2c1CCCC2	-1	10	-17	5	-0.1	4
C=CCNC(=O)c1ccccc1NC(=O)c1cccc2ccccc12	15	-2	-11	-15	5.8	-1
Cc1ccc(NC2=C(N3CCOCC3)C(=O)c3ccccc3C2=O)cc1	13	-92*	48	2	1.8	-89*
Fc1ccccc1-c1cc2ncccc2cn1	-7	2	-10	-2	0.6	3
Cc1ccccc1CNC(=O)c1ccc2ccccc2n1	-11	17	9	-11	2.9	9
Cc1cc(C(=O)NCC(c2ccco2)N(C)C)no1 (configuration not stated)	1	0	1	-1	-0.3	-1
CSc1ncccc1C(=O)NC1CCCCCCC1	-5	-16	0	4	1.4	9
C/C(CC(=O)NC(C)C)=N\NC(=O)COc1cc(C)c(Br)cc1Br	-4	-1	19	22	3.5	11
CCOC(=O)Sc1nc2ncncc2[nH]1	-18	?	-12	/	0.5	-15
COc1ccc(Cl)cc1NC(=O)COC(=O)CCNS(=O)(=O)c1cccs1	-7	-5	4	2	-0.7	-1
O=C(O)c1ccc(-n2c(-c3ccccc3)n[nH]c2=S)cc1	-14	-14	10	13	-0.1	-1
O=C(c1ccc2nc3ccc(Cl)cc3c(=O)n2c1)N1CCOCC1	-1	9	-5	7	-0.7	8
C/C(=N\NC(=S)NCCc1ccccc1)c1ccc(Cl)cc1	-17	-18	16	-14	2.8	-18
Cc1cccc(NS(=O)(=O)c2ccc(C(=O)NCC(c3ccccc3)N(C)C)cc2)c1C (configuration not stated)	-36	4	10	12	2.8	1
Cc1cc(S(=O)(=O)NC(C)C)ccc1OCC(=O)Nc1ccc2c(c1)OCCO2	-1	-1	-8	6	-0.5	0
Cc1occc1C(=O)NCc1nc(-c2ccc(Cl)cc2)no1	-10	1	29	9	-0.2	-9
Cc1oc(-c2ccc(-c3ccccc3)cc2)nc1CN(CCO)C(C)C	-18	-1	-1	-5	-0.2	-2
COCCNC(=S)NNC(=O)CSCc1ccc(Cl)cc1Cl	-14	0	-3	-33	1.1	-3
CN1C(=O)C2C(c3ccc(N(C)C)cc3)NN(Cc3ccccc3)C2C1=O (configuration not stated)	5	0	1	9	0.2	-13
COc1ccc(N2CCN(CC(O)COc3c(OC)cccc3OC)CC2)cc1 (configuration not stated)	-24	8	-18	28	0.6	3
CC1CCCC(NC(=O)CN(C)S(=O)(=O)c2cccc3cccnc23)C1C (configuration not stated)	-4	0	-2	/	0.6	-3
Cc1cc2ccccc2c(=O)n1CC(=O)Nc1ccc2c(c1)OCCO2	-16	/	-8	2	0.6	7
O=C1c2ccccc2NC(c2ccc(-c3ccc(Br)cc3)o2)N1O (configuration not stated)	0	0	10	15	1.4	-9
COc1ccc(-c2cc(C(=O)Nc3cccnc3)no2)cc1OC	4	0	-13&-18	?	1.1&-1.0	11

# Compounds shown so far with a tert-butyl group:
structure	D2 PAM	CtBP-E1A inh	TRPML1 inh	TRPV1 PAM	TRPML1 agonist	Six1-Eya2 inh
CC(C)(C)CC(C)(C)NC(=S)Nc1ccc(S(=O)(=O)N2CCOCC2)cc1	2	2	5	-3	-0.5	2
CC(C)C[C@H](NC(=O)c1nc[nH]c1C(=O)NCC(=O)OC(C)(C)C)C(=O)OCc1ccccc1	5	0	-2	?	2.7	-2
